AF4-AF9 inh: inhibitors of AF4 peptide binding to AF9, primary screen, biochemical, AlphaScreen, biotin-AF4 peptide, FLAG-AF9, single point; Protein AF-9 (Homo sapiens), P42568; 0.47% of 350,000 active; inhibition, % at 10 µM;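 active = every replicate reaching a set inhibition limit, whatever the replicate mean, cut at about 25% in these data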;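 note: 0% = plate neutral control median and 100% = total signal loss; the record names both 10 and 1 µM as test concentration; the first replicate is given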
Target sequence (P42568 whole entry, looked up): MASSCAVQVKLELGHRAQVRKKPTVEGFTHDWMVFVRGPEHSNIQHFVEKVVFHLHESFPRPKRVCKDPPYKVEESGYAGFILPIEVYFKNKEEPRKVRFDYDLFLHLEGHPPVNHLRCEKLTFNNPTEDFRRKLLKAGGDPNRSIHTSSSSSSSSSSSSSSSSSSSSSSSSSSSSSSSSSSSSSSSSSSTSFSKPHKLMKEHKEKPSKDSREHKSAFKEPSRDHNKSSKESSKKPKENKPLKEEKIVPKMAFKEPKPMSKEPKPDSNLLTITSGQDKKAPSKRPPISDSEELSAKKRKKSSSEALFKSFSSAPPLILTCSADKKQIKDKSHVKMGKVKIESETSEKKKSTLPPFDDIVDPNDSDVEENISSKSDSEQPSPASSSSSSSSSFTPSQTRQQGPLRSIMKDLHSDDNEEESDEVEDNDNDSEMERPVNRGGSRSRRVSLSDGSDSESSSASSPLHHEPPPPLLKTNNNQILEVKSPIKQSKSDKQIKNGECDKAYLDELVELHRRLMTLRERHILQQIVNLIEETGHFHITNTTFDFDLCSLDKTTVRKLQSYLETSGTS
Numbers without * were called inactive; ! = a repeat was not active. Some of the compounds tested (hit frequency here may not be typical).

| AF4-AF9 inh | SMILES |
| --- | --- |
| -7.4 | O=C(c1ccc(F)cc1)N1C[C@@H]2N[C@H](C1)C2c1ccc(-c2cncnc2)cc1 (some centres not stated) |
| -4.8 | CCC(=O)N1C[C@@H](C)[C@H](OC)CN(C)C(=O)c2cc(NC(=O)NC3CCCC3)ccc2OC[C@@H]1C |
| -2.9 | COc1ccc(S(=O)(=O)Nc2ccc3c(c2)CC(=O)N([C@@H](C)CO)C[C@H](C)[C@@H](CN(C)CC2CC2)O3)cc1 |
| 1.7 | C[C@H]1CCCCO[C@@H](CN(C)C(=O)Nc2cccc3ccccc23)[C@@H](C)CN([C@@H](C)CO)C(=O)c2cc(NS(=O)(=O)c3ccc(F)cc3)ccc2O1 |
| -0.4 | CC(C)CC#Cc1ccc([C@@H]2[C@@H](CO)N3C(=O)CN(C(=O)c4cnccn4)C[C@@H]23)cc1 |
| -3.4 | Cc1noc(C)c1S(=O)(=O)Nc1ccc2c(c1)C(=O)N([C@@H](C)CO)C[C@H](C)[C@H](CN(C)C)OCCCC[C@H](C)O2 |
| -1.0 | O=C(c1ccc(F)cc1)N1CC(=O)N2[C@@H](CO)[C@@H](c3ccc(-c4ccccc4F)cc3)[C@@H]2C1 |
| 0.0 | C/C=C/c1ccc2c(c1)[C@H]1[C@H](CCN1C(=O)C1CC1)[C@@H](CO)N2 |
| -0.2 | COCC(=O)N1[C@H](CO)[C@@H](c2ccccc2C2=CCCCC2)[C@@H]1C#N |
| -2.4 | COc1cccc(C#Cc2ccc([C@@H]3[C@@H](CO)N4C(=O)CN(C(=O)C5CC5)C[C@@H]34)cc2)c1 |
| -4.7 | O=C(c1ccccc1F)N1CC(=O)N2[C@H](CO)[C@@H](c3ccc(-c4ccccc4)cc3)[C@@H]2C1 |
| -1.8 | O=C(C1CCOCC1)N1CC(=O)N2[C@H](CO)[C@@H](c3ccc(-c4cccnc4)cc3)[C@@H]2C1 |
| 1.6 | CCCNC(=O)N1CC(=O)N2[C@@H](CO)[C@H](c3ccc(C#CCC4CCCC4)cc3)[C@@H]2C1 |
| -1.1 | O=C1CNC[C@H]2[C@H](c3ccc(C4=CCCC4)cc3)[C@@H](CO)N12 |
| 0.3 | O=C(c1cccnc1)N1CC(=O)N2[C@H](CO)[C@@H](c3ccc(-c4ccc(F)cc4)cc3)[C@@H]2C1 |
| -0.8 | O=C(Cc1cccnc1)N1CC(=O)N2[C@@H](CO)[C@@H](c3ccc(C#CC4CC4)cc3)[C@@H]2C1 |
| -5.9 | CC(=O)N(C)C[C@H]1[C@@H](c2ccc(-c3cccc(F)c3)cc2)[C@@H](CO)N1C(C)=O |
| -2.6 | O=C(C[C@@H]1C=C[C@@H](NC(=O)CN2CCOCC2)[C@H](CO)O1)NCCc1ccncc1 |
| -4.5 | CN1C(=O)c2cc(NC(=O)C3CCC3)ccc2OC[C@@H]2O[C@H](CC(=O)NCCc3ccncc3)CC[C@@H]21 |
| -0.8 | CCCNC(=O)C[C@H]1CC[C@@H]2[C@H](COc3ccc(NC(=O)NCCC)cc3C(=O)N2C)O1 |
| 42.9* | COc1ccc2c3c(n(C)c2c1)[C@H](CO)NCC31CN(Cc2ccccc2Cl)C1 |
| -1.8 | CNC[C@@H]1OCCCC[C@@H](C)Oc2ccc(NC(=O)NC3CCCCC3)cc2C(=O)N([C@@H](C)CO)C[C@H]1C |
| 45.0* | COc1ccc2c3c(n(C)c2c1)[C@@H](CO)NCC31CN(Cc2ccc(-c3ccccn3)cc2)C1 |
| -1.9 | CC(C)CC#Cc1cnc2c(c1)C(=O)N([C@H](C)CO)C[C@H](C)[C@H](CN(C)C(=O)CC1CC1)O2 |
| -3.4 | CO[C@H]1CN(C)C(=O)c2cc(NC(=O)NC3CCCC3)ccc2OC[C@@H](C)N(CC2CC2)C[C@@H]1C |
| -0.8 | COCC(=O)N1CC(=O)N2[C@H](CO)[C@@H](c3ccc(C#CC(C)C)cc3)[C@H]2C1 |
| -1.8 | COCC#Cc1ccc(CC[C@H]2O[C@H]3CC[C@@H](CO)O[C@H]3C[C@H]2NC(=O)Nc2c(C)noc2C)cc1 |
| 5.3 | COc1cccc(C#Cc2ccc([C@H]3[C@@H](CO)N(C(=O)C4CCCC4)[C@H]3C#N)cc2)c1 |
| 1.6 | O=C(NCCCN1CCOCC1)[C@@H]1[C@@H](CO)[C@@H]2Cn3c(ccc(C4=CCCC4)c3=O)[C@H]1N2 |
| 1.5 | Cc1ccc(S(=O)(=O)N(C)C[C@H]2OCCCC[C@H](C)Oc3ccc(NC(=O)CCC(F)(F)F)cc3C(=O)N([C@H](C)CO)C[C@@H]2C)cc1 |

An excerpt from above in order of their number in AF4-AF9 inh, ascending:
smiles | AF4-AF9 inh
CO[C@H]1CN(C)C(=O)c2cc(NC(=O)NC3CCCC3)ccc2OC[C@@H](C)N(CC2CC2)C[C@@H]1C | -3.4
O=C(C[C@@H]1C=C[C@@H](NC(=O)CN2CCOCC2)[C@H](CO)O1)NCCc1ccncc1 | -2.6
COCC#Cc1ccc(CC[C@H]2O[C@H]3CC[C@@H](CO)O[C@H]3C[C@H]2NC(=O)Nc2c(C)noc2C)cc1 | -1.8

Next part:
| AF4-AF9 inh | SMILES |
| --- | --- |
| 6.9 | CCCNC(=O)Nc1ccc2c(c1)OC[C@@H](C)N(CC1CCCC1)C[C@H](C)[C@@H](OC)CN(C)C2=O |
| -0.9 | O=C(Cc1ccncc1)N1CC(=O)N2[C@H](C1)[C@@H](c1ccc(Br)cc1)[C@@H]2CO |
| 0.4 | CC(C)CC#Cc1ccc([C@@H]2[C@H](CO)N3C(=O)CN(C(=O)c4ccccn4)C[C@@H]23)cc1 |
| 4.3 | O=C(c1ccccc1)N1CC(=O)N2[C@H](C1)[C@@H](c1ccc(-c3ccccc3)cc1)[C@@H]2CO |
| -1.4 | O=C(c1cnccn1)N1CC(=O)N2[C@H](CO)[C@@H](c3ccc(-c4ccc(F)cc4)cc3)[C@@H]2C1 |
| 3.0 | COc1cccc(-c2ccc([C@H]3[C@H]4CN(C(=O)C5CCOCC5)CC(=O)N4[C@H]3CO)cc2)c1 |
| -0.6 | CN(C)C(=O)C[C@@H]1CC[C@H]2[C@@H](COc3ccc(NC(=O)C4CCCC4)cc3C(=O)N2C)O1 |
| 3.6 | COc1ccccc1NC(=O)N[C@H]1CC[C@H](CCNS(=O)(=O)c2ccc(C)cc2)O[C@@H]1CO |
| -1.2 | O=C(C[C@H]1C[C@@H]2c3cc(NC(=O)C4CCOCC4)ccc3O[C@@H]2[C@H](CO)O1)NC1CCCCC1 |
| -1.6 | O=C(Cc1cccnc1)N1CC(=O)N2[C@H](CO)[C@H](c3ccc(C#CC4CC4)cc3)[C@@H]2C1 |
| 3.3 | O=C1CNC[C@H]2[C@H](c3ccc(C#CC4CCCCC4)cc3)[C@H](CO)N12 |
| -1.3 | CC(=O)N[C@H]1C[C@@H]2O[C@H](CO)CC[C@@H]2O[C@@H]1CCc1ccc(-c2ccc(F)cc2)cc1 |
| -10.9 | C/C=C/c1ccc([C@@H]2[C@@H](CO)N3C(=O)CN(C(=O)NC4CCCC4)C[C@@H]23)cc1 |
| -3.6 | O=C(Nc1ccc(F)cc1)N[C@H]1CC[C@@H](CCNC(=O)c2ccccc2F)O[C@H]1CO |
| 2.3 | Cc1noc(C)c1NC(=O)N(C)C[C@@H]1OCCCC[C@H](C)Oc2ccc(NC(=O)CCC(F)(F)F)cc2C(=O)N([C@@H](C)CO)C[C@@H]1C |
| 0.4 | COc1ccc2c3c([nH]c2c1)[C@H](CO)N(C(=O)Nc1c(C)noc1C)CC31CN(CC2CCOCC2)C1 |
| -1.9 | O=C(CC1CC1)N1CC(=O)N2[C@@H](CO)[C@H](c3ccc(C#Cc4ccccc4)cc3)[C@@H]2C1 |
| 5.3 | COc1ccc(-c2ccc(C3[C@H]4CNC[C@@H]3N4Cc3cncnc3)cc2)cc1 (some centres not stated) |
| 0.9 | O=C(C[C@H]1C[C@@H]2c3cc(NS(=O)(=O)c4ccc(F)cc4)ccc3O[C@@H]2[C@H](CO)O1)NCc1ccccc1F |
| 14.5 | Cc1cccc(-c2ccc([C@H]3[C@H]4CN(CCC(F)(F)F)CCCCN4[C@H]3CO)cc2)c1 |
| -1.0 | O=C(C1CC1)N1CC(=O)N2[C@@H](CO)[C@@H](c3ccc(C#Cc4cccc(F)c4)cc3)[C@@H]2C1 |
| 2.2 | COc1cccc(NC(=O)C[C@H]2CC[C@H]3[C@@H](COc4ccc(NC(=O)C5CCCC5)cc4C(=O)N3C)O2)c1 |
| 0.8 | N#C[C@H]1[C@@H](c2ccc(C#CC3CCCCC3)cc2)[C@@H](CO)N1S(=O)(=O)Cc1ccccc1 |
| 1.2 | CCCC#Cc1ccc([C@H]2[C@H]3CN(C(=O)c4ccccc4)CC(=O)N3[C@H]2CO)cc1 |
| -0.7 | O=C1CN(S(=O)(=O)c2cccc(F)c2)C[C@@H]2[C@H](c3ccc(-c4ccccc4)cc3)[C@@H](CO)N12 |
| -5.2 | CCCc1cc2c(OC)ccc(O)c2c(=O)n1C |
| -2.3 | CCCC#Cc1ccc([C@@H]2[C@@H](CO)N3C(=O)CN(C(=O)NC4CCCC4)C[C@H]23)cc1 |
| 1.0 | COc1cccc(-c2ccc(C3[C@H]4CNC[C@@H]3N4Cc3nccs3)cc2)c1 (some centres not stated) |
| -2.9 | C[C@@H]1CCCCO[C@H](CN(C)C(=O)c2ccccc2)[C@@H](C)CN([C@H](C)CO)C(=O)c2cc(NS(=O)(=O)c3cn(C)cn3)ccc2O1 |
| -4.9 | CCNC(=O)[C@H]1[C@H](CO)[C@H]2Cn3c(ccc(-c4cccc(F)c4)c3=O)[C@H]2N1C(C)=O |

Continued; the last 4 above are carried over.
| AF4-AF9 inh | SMILES |
| --- | --- |
| -2.3 | CCCC#Cc1ccc([C@@H]2[C@@H](CO)N3C(=O)CN(C(=O)NC4CCCC4)C[C@H]23)cc1 |
| 1.0 | COc1cccc(-c2ccc(C3[C@H]4CNC[C@@H]3N4Cc3nccs3)cc2)c1 (some centres not stated) |
| -2.9 | C[C@@H]1CCCCO[C@H](CN(C)C(=O)c2ccccc2)[C@@H](C)CN([C@H](C)CO)C(=O)c2cc(NS(=O)(=O)c3cn(C)cn3)ccc2O1 |
| -4.9 | CCNC(=O)[C@H]1[C@H](CO)[C@H]2Cn3c(ccc(-c4cccc(F)c4)c3=O)[C@H]2N1C(C)=O |
| 6.6 | C/C=C/c1ccc([C@H]2[C@@H](CO)N(CC3CCCCC3)[C@@H]2CNC(C)C)cc1 |
| 8.1 | OC[C@@H]1[C@H](c2ccc(-c3ccccc3F)cc2)[C@H]2CN(Cc3ccncc3)CCCCN12 |
| 2.0 | C[C@@H]1CCCCO[C@H](CN(C)C(=O)c2ccccc2)[C@@H](C)CN([C@@H](C)CO)C(=O)c2cc(N(C)C)ccc2O1 |
| -6.2 | COc1ccccc1-c1ccc([C@H]2[C@@H](CO)N(C(C)=O)[C@H]2CN(C)C(C)=O)cc1 |
| 2.7 | COc1ccc2c3c(n(C)c2c1)[C@H](CO)N(Cc1nccs1)CC31CN(C)C1 |
| 15.7 | C/C=C/c1ccc2c(c1)[C@H]1[C@H](CCN1Cc1ccc(F)cc1)[C@H](CO)N2 |
| -1.5 | COc1cccc(NC(=O)N2CC3(C2)[C@H](c2ccccc2)[C@H](CO)N3C(=O)C2CC2)c1 |
| 25.9*! | Fc1ccc(F)c(CN2[C@@H]3CNC[C@H]2C3c2ccc(-c3ccncc3)cc2)c1 (some centres not stated) |
| -2.5 | C[C@H](CO)N1C[C@H](C)[C@H](CN(C)C(=O)Cc2ccccc2)Oc2ncc(C#CCN(C)C)cc2C1=O |
| 7.6 | CN1c2ccc(-c3cccc(C#N)c3)cc2[C@@H]2[C@@H](CCN2C(=O)NC2CCCC2)[C@H]1CO |
| -0.7 | COc1ccccc1-c1ccc([C@H]2[C@@H](CO)N[C@@H]2CNC(=O)C2CC2)cc1 |
| -1.4 | CC(C)NC(=O)N1CC(=O)N2[C@H](CO)[C@H](c3ccc(C#CCN(C)C)cc3)[C@@H]2C1 |
| -0.2 | CCN1[C@@H]2c3ccc(-c4ccccc4OC)c(=O)n3C[C@@H]2[C@@H](CO)[C@@H]1C(=O)NCCCN(C)C |
| 3.2 | COc1ccc2c3c([nH]c2c1)[C@@H](CO)NCC31CN(S(=O)(=O)c2cccc(C)c2)C1 |
| 6.0 | C[C@H](CO)N1C[C@H](C)[C@@H](CN(C)CC2CCCCC2)Oc2c(NC(=O)c3ccncc3)cccc2C1=O |
| -3.9 | C[C@H]1CN([C@@H](C)CO)C(=O)Cc2cc(N(C)C)ccc2O[C@H]1CN(C)S(=O)(=O)c1cccs1 |
| -3.7 | Cc1ccc(S(=O)(=O)N(C)C[C@@H]2OCCCC[C@@H](C)Oc3ccc(NC(=O)c4ccncc4)cc3C(=O)N([C@H](C)CO)C[C@@H]2C)cc1 |
| 1.2 | CS(=O)(=O)N1CC(=O)N2[C@H](CO)[C@@H](c3ccc(C#Cc4cccc(F)c4)cc3)[C@H]2C1 |
| -0.7 | N#C[C@H]1[C@H](c2ccccc2-c2cccc(F)c2)[C@@H](CO)N1C(=O)C1CCCC1 |
| 0.9 | O=C1CN(S(=O)(=O)Cc2ccccc2)C[C@H]2[C@H](c3ccc(C#CC4CC4)cc3)[C@H](CO)N12 |
| -1.1 | CN(C)C(=O)C[C@H]1C[C@@H]2c3cc(NC(=O)C4CCC4)ccc3O[C@@H]2[C@@H](CO)O1 |
| -0.7 | O=C(c1ccccn1)N1CC2(C1)[C@H](c1ccccc1)[C@H](CO)N2C(=O)C1CCC1 |
| 2.2 | CO[C@@H]1CN(C)C(=O)c2ccc(NS(C)(=O)=O)cc2OC[C@@H](C)N(Cc2ccccc2)C[C@@H]1C |
| -1.9 | CN(C)C(=O)[C@@H]1[C@@H](CO)[C@@H]2Cn3c(ccc(C4=CCCC4)c3=O)[C@H]1N2Cc1ccccn1 |
| -8.7 | O=C(c1ccc2c(c1)OCO2)N1C[C@@H]2N[C@H](C1)C2c1ccc(-c2ccncc2)cc1 (some centres not stated) |
| -21.6 | CN1CCN(C(=O)C[C@H]2C=C[C@@H](NC(=O)c3ccc4c(c3)OCO4)[C@@H](CO)O2)CC1 |
| -3.3 | O=C(NC[C@@H]1CC[C@H]2[C@H](CN2C(=O)CN2CCOCC2)O1)NC1CCCCC1 |

Compound activity deposited in PubChem by Broad Institute.
